# Choline anaer gr – choline-fed anaerobic bacterial growth inhibition | Gram-negative bacterium anaerobic choline minimal medium, absorbance growth; active compounds read low; many inactives read as strong as hits in the columns shown | calls only | AID 1963822 | 0.2% of 55,000 active;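 active means growth z-score on choline under -2 at 7 or 20 h with little or no fall on glycerol, limits in tiers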;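 further: stock transfer was 300 nL into about 50 µL; the organism is E. coli; final concentration not given here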
# Choline anaer gr early – recorded beside Choline anaer gr, whose call it bears; z-score; measured here: choline growth z-score, timepoint 1;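 score of optical density at 7 h as mean of two plates; lower means less growth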
# * marks the source's active call; other numbers are inactive results; i = inactive; & = joins results of further samples. This is a subset; rates above refer to the full screens.
SMILES,Choline anaer gr,Choline anaer gr early
CC(C)(C)NS(=O)(=O)C1CCS(=O)(=O)C1 (stereo unspecified),i,1.1
COc1ccc(CNC(=O)C2CCN(c3cc(C(=O)Nc4cccc(OC)c4)ccn3)CC2)cc1,i,-0.31
Cc1cc(NC(=O)CSc2nc3ccccc3c(=O)n2CCCN2CCC(C)CC2)n[nH]1,i,-0.14
O=c1c(S(=O)(=O)c2cccc(F)c2)c[nH]c2cc(Cl)c(F)cc12,i,-2
CCCNC(=O)C1CCN(C(=O)c2cccnc2-c2ccccc2C)CC1,i,-0.6
COc1cccc(NC(=O)c2nnn(-c3ccc4noc(-c5ccccc5)c4c3)c2C)c1,i,2.1
O=C(NCC(c1cccnc1)c1c[nH]c2ccccc12)Nc1cccc(Cl)c1 (stereo unspecified),i,-0.49
COc1ccc(Br)cc1-c1nc(CSc2nc(C)c(C)c(=O)[nH]2)c(C)o1,i,0.2
O=C(Nc1cccc(Cl)c1)N1CCN(Cc2nc3cc(C(=O)N4CCCCC4)ccc3o2)CC1,i,-0.11
COc1ccc(C(=O)Nc2cc(-c3noc(C)n3)sc2C)c(OC)c1,i,0.42
COc1ccccc1N1CCN(C(=O)Cc2csc(NC(=O)Nc3ccccc3)n2)CC1,i,-0.57
O=C(CCc1nc(-c2ccc(S(=O)(=O)N3CCCC3)cc2)no1)N1CCCC1,i,-0.85
Cc1nc(-c2ccc(C)c(S(=O)(=O)N3CCC(C(=O)N4CCN(c5ccc(F)cc5)CC4)CC3)c2)no1,i,0.51
COc1ccc(Br)cc1C1CC(=O)Nc2c1cnn2-c1nc2ccccc2s1 (stereo unspecified),i,-0.09
O=C(NCc1ccccc1Cl)c1ccc(-c2cnc(NC3CCCCC3)nc2)cc1,i,0.6
O=C(Cn1cnc2nc(N3CCCCC3)sc2c1=O)Nc1ccccc1,i,-0.48
O=C(NC(c1ccccc1)c1ccccc1)c1nc[nH]c1C(=O)NCc1ccccn1,i,0.15
CCCC(=O)N(Cc1nc2nc(C)cc(=O)n2[nH]1)c1ccc(C)cc1,i,-0.38
C=CCOc1ccccc1C1CC(=O)Nc2c1c(C)nn2-c1nncc(-c2ccc(C)cc2)n1 (stereo unspecified),i,1.3
CCOC(=O)Cn1c(=O)n(Cc2ccccc2)c(=O)c2cc3c(nc21)CC(C)(C)OC3,i,1.9
CC(=O)Nc1n[nH]c(S(C)(=O)=O)n1,i,0.97
Cc1cc(NC(=O)C2CC(c3c(F)cccc3Cl)=NO2)no1 (stereo unspecified),i,-1.5
CCN1CCCC1CNC(=O)c1cc(S(N)(=O)=O)ccc1OC (stereo unspecified),i,0.68&-0.17&0.72&-0.38&-0.2
Cc1nc2nc(N(CCOc3ccccc3)S(=O)(=O)c3ccccc3)nn2c(C)c1Cl,i,-1.6
O=S(=O)(c1ccc(Cl)cc1)N1CCc2nc(N3CCCCC3)ncc2C1,i,0.59
Cc1ccccc1NC(=O)N(C)CCc1noc(C(=O)NCc2ccc(Cl)cc2)n1,i,-1.1
COc1ccc(CCNC(=O)c2sc3ccccc3c2Cl)cc1OC,i,0.33
O=C(NCc1ccccn1)c1cccc(N2CCCS2(=O)=O)c1,i,0.47
COC(=O)c1ccc(-c2nc3cnccn3c2NC2CCCCC2)cc1,i,0.33
Cc1nc(CNC(=O)[C@H]2CSCN2C(=O)Nc2ccc(F)cc2)cs1,i,0.66
Cc1cc(C(=O)NCCC2=CCCCC2)c2c(=O)n(C)c(=O)n(C)c2n1,i,0.07
CC(=O)Nc1c(C)nn(-c2ccc(Cl)cc2)c1N1CCC(C(=O)NC2CCCC2)CC1,i,0.07
CCOc1ccccc1C1CC(=O)Nc2c1cnn2-c1nc2ccccc2s1 (stereo unspecified),i,0.13
Cc1ccc(NC(=O)CN2C(=O)C3CCCC3=Nc3ccccc32)cc1 (stereo unspecified),i,0.11
O=c1c2sccc2nc(SCc2nc(-c3ccc(Br)cc3)no2)n1C1CC1,i,1.4
CCC(=O)N1c2ccccc2NC2=C(C(=O)CC(C)(C)C2)C1c1ccc(C)cc1 (stereo unspecified),i,-0.2
COc1cc(OC)cc(C(=O)NCCn2c(-c3ccncc3)nc3cccnc32)c1,i,0.02
Cc1nn(-c2ccccc2)c2c1-c1sc(C(=O)N(C)Cc3ccccc3)cc1CC2,i,1.1
COc1cc(CNCCSc2nnnn2C)cc(Br)c1OCc1ccccc1Cl,i,0.46
CC(=O)Nc1ccc(NC(=O)c2ccc3c(c2)CC(c2ccc(C)cc2)OC3=O)cc1 (stereo unspecified),i,-0.06
Cc1cc(C)nc(NC(=O)CCCn2nnc3cc(S(=O)(=O)N(C)C)ccc32)n1,i,-1.7
Cc1nsc(NC(=O)C2COc3ccccc3O2)n1 (stereo unspecified),i,-0.02
CC(C(=O)O)c1ccc(N2Cc3ccccc3C2=O)cc1 (stereo unspecified),i,0.71
COc1ccc(Nc2n[nH]nc2C(=O)Nc2ccc(F)cc2C)cc1,i,-0.19
CC#CCC(C)[C@@H](O)/C=C/[C@@H]1[C@H]2C/C(=C/CCCC(=O)O)C[C@H]2C[C@H]1O (stereo partly specified),i,0.3
Cc1onc(-c2ccc(Br)cc2)c1C(=O)NCCC1=CCCCC1,i,0.53
Cc1nn(C(=O)Nc2ccc(F)c(Cl)c2)c2ccccc12,i,0.42
COC(=O)C1=C(c2ccccc2)c2cc(Cl)ccc2S(=O)(=O)N1CC(=O)Nc1cc(F)ccc1F,i,0.21
CCc1onc(C)c1C1CCCN1Cc1cn(CC)c2ccc(OC)cc12 (stereo unspecified),i,0.3
O=C(NC(Cc1c[nH]c2ccccc12)C(=O)NCc1ccccc1)c1ccccc1 (stereo unspecified),i,-0.57
C=CCn1c(SCc2nc(-c3cccc(Cl)c3)no2)nc2cc3c(cc2c1=O)OCO3,i,1.2
O=C(CCc1nnc(C(=O)Nc2ccccc2)s1)NCCc1c[nH]c2ccccc12,i,1.2
Cc1c(N2CCC(C(=O)N3CCN(c4ccccc4)CC3)CC2)c(=O)n(C)c(=O)n1-c1ccccc1,i,1.1
COc1ccc(OC)c(CNC(=O)c2cccc(-c3cnc(N4CCCCC4)nc3)c2)c1,i,-0.94
CCCCc1nc2c3ccccc3n(CC(=O)c3cc(C)c(C)cc3C)c(=O)n2n1,i,1.1
CCN(C(=O)CSc1nnc(CN(c2ccc(F)cc2)S(C)(=O)=O)n1C)c1ccccc1,i,0.09
CC1=C(c2ccc(C)c(C)c2)S(=O)(=O)N(Cc2ccc(C(=O)NC3CC3)cc2)C1=O,i,0.04
Cc1cccc(N2CCN(C(=O)CCC(=O)N3CCSc4ccccc43)CC2)c1C,i,0.05
COc1ccc(Cn2ccc3nc(C)c(C(=O)Nc4ccc(F)cc4)cc3c2=O)cc1,i,-0.59
Cc1nnc2sc(SCC(=O)N3CCCC3)nn2c1=O,i,0.47

# Record cards (already shown).
# Record of CC(C(=O)O)c1ccc(N2Cc3ccccc3C2=O)cc1 (stereo unspecified) → Choline anaer gr = i; Choline anaer gr early = 0.71
# Record of CC(=O)Nc1n[nH]c(S(C)(=O)=O)n1 → Choline anaer gr = i; Choline anaer gr early = 0.97

# Other compounds follow:
SMILES,Choline anaer gr,Choline anaer gr early
CCCCN(C)C(=O)c1cc(NS(C)(=O)=O)cnc1N1CCNCC1,i,0.36
Cn1c(=O)c2c(-c3ccc(Cl)cc3)n(CCO)cc2n(C)c1=O,i,0.5
Cc1nc2cccnc2n1-c1ccc(CC(=O)NCc2ccccc2)cc1,i,-0.66
Cc1cccc(OCC(=O)Nc2ccccc2-c2ccc3ccccc3n2)c1,i,0.17
COc1ccc(NC(=O)c2cccc(Br)c2)cc1CN1CCn2c(nc3ccccc32)C1,i,1.6
CN(C1CCCCC1)S(=O)(=O)c1ccc(S(=O)(=O)N(Cc2ccccc2)Cc2ccccc2F)cc1,i,3.2
CCn1cc(CCC(=O)NCc2ccccc2Cl)c2ccccc21,i,0.39
CC(C)(C)NS(=O)(=O)c1ccc2c(c1)CCN2C(=O)CCC(=O)N1CCOCC1,i,-0.56
CCOc1ccc2nc(-n3nc(C)c4c3NC(=O)CC4c3ccsc3)sc2c1 (stereo unspecified),i,-1.7
O=S(=O)(Cc1ccccc1)N1CCN(c2cc(-c3ccc(F)cc3)ncn2)CC1,i,0.55
CC(C)c1ccc(NC(=O)Cn2cccc2)cc1,i,-0.35
Cc1cc(=O)n(C)c(=O)n1-c1ccccc1,i,1.2
COc1cccc(NS(=O)(=O)c2cc(-c3c(C)noc3NC(C)=O)ccc2C)c1,i,-0.41
O=C(NCCn1c(CCc2ccccc2)nc2ccccc21)NC1CCCC1,i,0.18
CC(C)CCn1nc2c(S(=O)(=O)N3CCc4ccccc4C3)cccn2c1=O,i,0.62
O=S(=O)(c1ccc2c(c1)CCCC2)N1CCCC1c1nc(-c2ccc(F)cc2)no1 (stereo unspecified),i,0.93
C=CCc1ccccc1OCc1cc(=O)n2nc(C)sc2n1,i,0.02
O=C(NC1CCCC1)C1CCCN(c2ccc(-c3ccccc3)nn2)C1 (stereo unspecified),i,1
O=S(=O)(NCc1cccnc1-c1ccc(F)cc1)c1ccc(Br)cc1,i,1.4
Cc1nc(C)c(C(=O)Nc2cccc(Cl)c2)s1,i,-0.4

# An excerpt from above in order of the Choline anaer gr early value, high to low.
structure | Choline anaer gr early
CN(C1CCCCC1)S(=O)(=O)c1ccc(S(=O)(=O)N(Cc2ccccc2)Cc2ccccc2F)cc1 | 3.2
COc1ccc(NC(=O)c2cccc(Br)c2)cc1CN1CCn2c(nc3ccccc32)C1 | 1.6
O=S(=O)(NCc1cccnc1-c1ccc(F)cc1)c1ccc(Br)cc1 | 1.4
CCOc1ccc2nc(-n3nc(C)c4c3NC(=O)CC4c3ccsc3)sc2c1 (stereo unspecified) | -1.7

# Back to the main list with the 2 entries that preceded the break.
SMILES,Choline anaer gr,Choline anaer gr early
O=S(=O)(NCc1cccnc1-c1ccc(F)cc1)c1ccc(Br)cc1,i,1.4
Cc1nc(C)c(C(=O)Nc2cccc(Cl)c2)s1,i,-0.4
O=C(CSc1nc2nc[nH]c2c(=O)[nH]1)N1CCCc2ccccc21,i,-0.42
Cc1ccc(-c2ccc(=O)n(CCc3nc(-c4ccc(F)cc4)no3)n2)cc1C,i,0.75
COCC(=O)Nc1ccccc1-c1ccc2cc(C)ccc2n1,i,-0.89
Cc1noc(-c2ccc(S(=O)(=O)N3CCC4(CC3)OCCO4)s2)c1C,i,-2.3
C=CCn1c(CN(c2ccc(F)cc2)S(C)(=O)=O)nnc1SCC(=O)N1CCc2ccccc21,i,0.58
C=CCc1c(C)nn(-c2nc(CC(=O)Nc3nccs3)cs2)c1C,i,0.58
O=C(COc1ccc(F)cc1)NCCn1c(C(F)(F)F)nc2cccnc21,i,-0.1
CCCCCCNC(=O)n1cc(F)c(=O)[nH]c1=O,i,0.43&-2.3
CC1Cc2cc(S(=O)(=O)CCC(=O)N3CCn4c3nc3ccccc34)ccc2N1C(=O)C1CC1 (stereo unspecified),i,-1.2
COc1ccc(Cl)cc1NC(=O)N1Cc2cccn2-c2ccccc21,i,0.1
CC1CCN(S(=O)(=O)c2nn(C)cc2C(=O)NCC2CC2)CC1,i,0.25
COC(=O)C1=C(C)NC(C)=C(C(=O)OCCSc2ccccc2)C1C (stereo unspecified),i,0.59&0.85&0.96
CCOCCOC(=O)c1ccc2c(c1)N(Cc1ccc(F)cc1)C(=O)c1ccccc1S2,i,1.6
CN1CCN(C(=O)CN2c3ccc(F)cc3-c3ccccc3S2(=O)=O)CC1,i,-0.12
COc1ccc(-c2noc(N3CCC(C(=O)N4CCN(c5ccccc5F)CC4)CC3)n2)cc1,i,0.32
c1cn(-c2cc(N3CCSCC3)ncn2)cn1,i,-0.8
Cc1ccc(NC(=O)c2cc3c([nH]c2=O)CC(C)(C)CC3=O)c(C)c1,i,-2.5
CCOCCCNCc1ccc(-c2ccc(OC)c(Cl)c2)o1,i,0.38
Cc1ccc(C2C3=C(NCCN=C3c3ccccc3)C(=O)N2c2ccccc2)cc1 (stereo unspecified),i,-0.32
COc1cccc(NC(=O)N2CCN(Cc3nc4cc(C(=O)N5CCCC5)ccc4n3C)CC2)c1,i,1
CC(NC(=O)C1CCN(c2nc3ccccc3nc2C(F)(F)F)CC1)c1ccccc1 (stereo unspecified),i,1.2
Cn1c(N2CCN(C(=O)C3CCCC3)CC2)cc(=O)n(C)c1=O,i,-0.19
CCSc1nnc(NC(=O)c2sc(COc3cccc(C)c3)nc2C)s1,i,0.15
Cn1cc(C(=O)N2CCC(C(N)=O)CC2)c2[nH]c(=O)n(-c3ccc(Cl)cc3)c(=O)c21,i,-0.75
Cc1noc(-c2cc(S(=O)(=O)N3CCOCC3)c(C)s2)c1C,i,-1.1
O=S(=O)(c1ccc2c(c1)CCCC2)N1CCCC1c1ccc(F)cc1 (stereo unspecified),i,3.4
CC(C)c1nnc2ccc(N3CCN(C(C)C)CC3)nn12,i,-2.5
Cc1ccccc1OCC(=O)NCC(c1ccc(Br)cc1)c1c[nH]c2ccccc12 (stereo unspecified),i,0.77
CCCNCc1ccc(-c2ccccc2)o1,i,-1
CCOC(=O)c1cc2n(n1)CC(C)(C(=O)NC1CCCCC1)N(c1cccc(Cl)c1)C2=O (stereo unspecified),i,0.34
Cc1ccc(-n2nc(N3CCN(S(=O)(=O)c4cnc[nH]4)CC3)ccc2=O)cc1C,i,-0.47
CCOc1ccc(CCNc2ncnc3onc(-c4ccc(Cl)cc4)c23)cc1OCC,i,0.59
O=c1c2sccc2n2c(SCc3ccc(F)cc3)nnc2n1CC1CCCO1 (stereo unspecified),i,0.26
CC(=O)Nc1nc(N2CCC(C(=O)NC3CC3)CC2)sc1C(=O)N1CCCC1,i,-0.75

# Quoted at random: 2 compounds from above, in no set order.
SMILES,Choline anaer gr,Choline anaer gr early
CC(C)c1nnc2ccc(N3CCN(C(C)C)CC3)nn12,i,-2.5
CCSc1nnc(NC(=O)c2sc(COc3cccc(C)c3)nc2C)s1,i,0.15
